High-throughput results from PubChem BioAssay.
D2 PAM: potentiates the human D2 dopamine receptor allosterically; DiscoveRx D2 beta-arrestin cells, luminescence, 90 min; 100% = 57 uM dopamine signal; potentiation, % (concentration not given with the values); 360,000 tested, 0.23% active; AID 624464; active = potentiation of 50% or more; inconclusive = 30% to 50%; inactive = 30% or less;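 further: compound concentration not given in the record; tested on top of an EC20 dose of dopamine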
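D2 cells co-treated with compound plus 50 nM dopamine (EC20) for 90 min at 37 deg C to detect potentiation. Beta-arrestin recruitment was read as enzyme-fragment luminescence after 1 h at ambient temperature. Full response was set by 57 uM dopamine.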
D2 ag: activates the human D2 dopamine receptor; P14416; DiscoveRx PathHunter D2 beta-arrestin, luminescence, 90 min; 100% = 57 uM dopamine signal; activation, % (no concentration beside the values); 360,000 tested, 0.084% active; in the data active = activation above about 40%; inconclusive = about 15% to 40%; inactive = below about 15%; further: compound concentration not given in the record; the text of the record calls up to 30% inactive
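DiscoveRx PathHunter D2 beta-arrestin cells (2,100/well) attached overnight, then compound-stimulated 90 min at 37 C in HBSS/10 mM HEPES/0.1% Tween-20 buffer; beta-galactosidase complementation read by luminescence after 1 h at ambient temperature. Dopamine 57 uM final (EC100) as control.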
CtBP-E1A inh: inhibitors of CtBP/E1A interaction; AlphaScreen GST-E1A/His-CtBP binding, 1536-well; active compounds read low; control for the full effect not named in the record; activity change, % (concentration not given with the values); 340,000 tested, 0.49% active; AID 651724; in the data active means activity change below about -65%; inconclusive means about -30% to -65%; inactive means above about -30%; further: on the % scale 0 is the no-effect control and ±100 the full control effect
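Protein mix (5X: 125 nM each GST-E1A, His-CtBP) was incubated with pinned compound 2 h at 37 deg C in dark, in 50 mM Tris pH 8.0 buffer with 300 mM NaCl. Glutathione donor and nickel acceptor beads followed; AlphaScreen signal read after 1 h.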
Six1-Eya2 blk: Six1/Eya2 interaction inhibition. Q15475+O00167. AlphaScreen GST-Six1/His-Eya2 binding, biochemical; active compounds read low; control for the full effect not named in the record. activity change, % (concentration not given with the values). 360,000 tested, 0.56% active; in the data active = activity change below about -65%; inconclusive = about -30% to -65%; inactive = above about -30%; further: on the % scale 0 is the no-effect control and ±100 the full control effect
Target sequence (O00167 whole entry, looked up): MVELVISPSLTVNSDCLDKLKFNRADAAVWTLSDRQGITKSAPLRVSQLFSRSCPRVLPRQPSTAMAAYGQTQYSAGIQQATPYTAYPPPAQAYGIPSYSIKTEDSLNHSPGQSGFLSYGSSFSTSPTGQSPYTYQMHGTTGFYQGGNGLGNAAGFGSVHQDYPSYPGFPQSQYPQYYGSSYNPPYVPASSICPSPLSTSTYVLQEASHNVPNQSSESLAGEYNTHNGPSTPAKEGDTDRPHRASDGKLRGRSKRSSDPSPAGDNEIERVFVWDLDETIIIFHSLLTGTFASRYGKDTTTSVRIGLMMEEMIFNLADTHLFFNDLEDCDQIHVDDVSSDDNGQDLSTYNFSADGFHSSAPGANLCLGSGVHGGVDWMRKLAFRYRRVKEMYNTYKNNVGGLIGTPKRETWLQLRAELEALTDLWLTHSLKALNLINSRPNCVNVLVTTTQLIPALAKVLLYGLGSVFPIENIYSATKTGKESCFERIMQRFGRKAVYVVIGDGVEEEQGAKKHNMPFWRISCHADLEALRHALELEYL
Target sequence (Q15475 whole entry, looked up): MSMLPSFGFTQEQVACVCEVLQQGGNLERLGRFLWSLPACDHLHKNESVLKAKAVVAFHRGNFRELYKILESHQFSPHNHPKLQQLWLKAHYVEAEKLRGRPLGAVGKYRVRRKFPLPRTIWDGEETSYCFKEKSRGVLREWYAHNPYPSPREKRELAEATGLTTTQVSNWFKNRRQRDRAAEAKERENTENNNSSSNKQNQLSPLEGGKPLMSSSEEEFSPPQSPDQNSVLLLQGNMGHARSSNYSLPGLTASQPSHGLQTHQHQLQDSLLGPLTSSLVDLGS
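Six1/Eya2 binding was read as AlphaScreen signal after compounds were pinned into GST-Six1 plus His-tagged Eya2 (5X stock 250/500 nM) in pH 8.0 Tris/NaCl/TCEP buffer, beads added, then incubated 1 h, 37 C, dark.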
gsp agonist: agonists of gsp mutant (McCune-Albright syndrome). gsp mutant cells, cAMP HTRF, 30 min; control for the full effect not named in the record. Potency, µM (series often up to 76.9 µM), for inactives: top-dose activation (cAMP increase), hits mostly activators. 340,000 tested, 0.13% active; active = well fitted activation curve with a large enough effect; inconclusive = small, poorly fitted or top-dose-only effect, or another doubt; inactive = no such curve, though single readings can be large or run the other way; cell line not stated here;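 further: phosphodiesterase inhibitor Ro 20-1724 added with compounds to block cAMP breakdown; potency means the concentration at half of the fitted maximal effect; nearly all actives have a fitted effect of over 60% in size; about a fifth of the inactives were tested at one dose only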
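Cells stably selected in G418 were plated at 2000/well, grown 16-24 hr, then given compounds in DMSO with the PDE inhibitor […] (300 uM solution added) for 30 min at 37C; cAMP was read by HTRF.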
gsp antag: gsp mutant antagonism | 340,000 tested, 0.4% active | gsp-mutant cells, cAMP HTRF, 30 min; control for the full effect not named in the record | Potency, µM (highest dose often 76.9 µM), for inactives: at the top dose activity change, negative = inhibition, actives largely listed as inhibitors; active = falling curve of any shape with a large fitted effect; inconclusive = falling curve, mostly with a smaller effect; inactive = flat or rising curve; cell line not stated here;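 further: intracellular cAMP measured with PDE inhibitor Ro 20-1724 present during compound exposure; potency means the concentration at half of the fitted maximal effect; on the % scale 0 is the no-effect control and ±100 the full control effect; nearly all actives have a fitted effect of over 65% in size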
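HTRF cAMP measurement after 30 min RT detection following 30 min, 37C compound treatment alongside […] (added as 300 uM solution) in G418-selected cells seeded at 2000/well and grown 16–24 h.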
* = called active by the depositor; ? = inconclusive; · = not tested or not shown; [ ] = remark or other dose.

mol,gsp antag,Six1-Eya2 blk,D2 ag,CtBP-E1A inh,D2 PAM,gsp agonist
O=C(Nc1ccc2c(c1)OCO2)c1cccc2c1C(=O)N(C1CCCCC1)C2,-5%,4,4.6,·,-4,11%[15.4 µM]
COC(=O)CCCC(=O)N1CCCC(C(=O)c2ccccc2SC)C1 (stereo not given),-2%,6,-5.2,-3,-3,-2%
CCn1cnc2scc(-c3ccccc3)c2c1=O,-9%,0,-4.4,6,-7,15%
O=C1C2C3C=CC(C3)C2C(=O)N1c1ccccc1 (stereo not given),14%,7,-2.7,9,-8,-51%[inhibitor]
NC(=O)C1CCCN(C(=O)c2cccc(NC(=O)c3cccs3)c2)C1 (stereo not given),11%,2,-5.6,0,0,-5%[15.4 µM]
CC1CCCN(CCCNC(=O)CN2C(=O)CSc3ccc(S(=O)(=O)N4CCOCC4)cc32)C1 (stereo not given),21%,0,-3.5,2,-27,16%
C#CCOCCOCCOCCNc1nc(N2CCN(C(=O)[C@H](CCC(=O)O)n3cc(CN)nn3)CC2)nc(N2CCN(C(=O)[C@H](CCC(=O)O)n3cc([C@@H](N)[C@H](C)CC)nn3)CC2)n1,7%,4,-0.2,-3,·,·
Oc1ccc(Nc2nnc(-c3ccc(O)cc3)c3ccccc23)cc1,-19%,-12,-0.9,-12,-3,-18%[15.4 µM]
COc1ccc(NC(=O)N2CCc3ccccc3C2)c(OC)c1,-2%,11,6.5,0,-7,-31%[inhibitor]
C[C@H]1C(=O)N(C)CCN1C(=O)c1cccc(OC2CCN(CC(C)(C)C)CC2)c1,8%,9,0.4,-10,-11,12%
CC(NC(=O)c1ccccc1)C(=O)NC1=NCCS1 (stereo not given),1%,0,0.8,9,10,2%
CC1(C)C=C2C(=NN(c3ccccc3)C(N)=C2C#N)CO1,3%,-14,12,-12,5,?
CN1C(CC(=O)Nc2ccc(Br)cc2)c2ccccc2CC1(C)C (stereo not given),·,-7,-1.6,-7,-35,21%[15.4 µM]
Cc1ccc(C(=O)CCC(=O)N2CCC(C(N)=O)CC2)cc1,1%,-2,-0.1,-13,-12,25%
CC(C)Oc1ccc(CC2CCC(=O)N(C)C2=O)cc1 (stereo not given),9%,1,-2.2,3,0,19%[15.4 µM]
COC(=O)Nc1sc2nc(C)cc(C)c2c1-n1cccc1,-4%,-10,-4.5,-2,-3,26%
COC(=O)c1ccc(Cn2nc([N+](=O)[O-])c(Br)c2C)cc1,-29%,-11,-3.9,0,-12,-1%[15.4 µM]
C=CCOC(=O)C1=C(C)NC(SCC(=O)Nc2nccs2)=C(C#N)C1c1cccs1 (stereo not given),?,-5,1.6,-1,-13,6%
COc1cccc(NC(C)(C)c2nnnn2-c2c(C)cccc2C)c1,-21%,-1,-0.3,3,-1,-1%[15.4 µM]
Cn1ncc(N2CCN(C(=O)c3ccc(Cl)cc3)CC2)c(Cl)c1=O,-7%,0,-0.7,11,-5,-10%[15.4 µM]

Pulled by structure from the list above:
mol,gsp antag,Six1-Eya2 blk,D2 ag,CtBP-E1A inh,D2 PAM,gsp agonist
CC1(C)C=C2C(=NN(c3ccccc3)C(N)=C2C#N)CO1,3%,-14,12,-12,5,?
C[C@H]1C(=O)N(C)CCN1C(=O)c1cccc(OC2CCN(CC(C)(C)C)CC2)c1,8%,9,0.4,-10,-11,12%
COC(=O)CCCC(=O)N1CCCC(C(=O)c2ccccc2SC)C1 (stereo not given),-2%,6,-5.2,-3,-3,-2%

Single records, as listed above.
Listed for COC(=O)c1ccc(Cn2nc([N+](=O)[O-])c(Br)c2C)cc1 → gsp antag = -29%; Six1-Eya2 blk = -11; D2 ag = -3.9; CtBP-E1A inh = 0; D2 PAM = -12; gsp agonist = -1%[15.4 µM]
Listed for C=CCOC(=O)C1=C(C)NC(SCC(=O)Nc2nccs2)=C(C#N)C1c1cccs1 (stereo not given) → gsp antag = ?; Six1-Eya2 blk = -5; D2 ag = 1.6; CtBP-E1A inh = -1; D2 PAM = -13; gsp agonist = 6%

Later entries.
mol,gsp antag,Six1-Eya2 blk,D2 ag,CtBP-E1A inh,D2 PAM,gsp agonist
CC1(Oc2ccc3ccccc3c2)CCN(Cc2cccn2-c2nccs2)C1 (stereo not given),·,-23,-4.7,-21,-15,·
COc1cc(-c2n[nH]c(=O)o2)cc(OC)c1OC,0%,4,0.1,-10,-31,7%
CCOC(=O)c1nn(-c2ccc(C)c(C)c2)c(=O)c2c(N)scc12,14%,-13,-1.5,-18,-2,-23%
COc1ccc(-n2nc3c(c2NC(=O)COc2ccccc2)CS(=O)C3)cc1 (stereo not given),-1%,4,-0.6,-1,-5,22%[15.4 µM]
O=C(CS(=O)(=O)c1ccc(F)cc1)Nc1nccs1,-11%,-13,-4.6,-3,0,-2%[15.4 µM]
COc1ccc(C2CC(=O)C3=C(C2)Nc2ncnn2C3c2ccccc2)cc1 (stereo not given),-16%,6,-0.1,3,-1,13%
C[C@H]1CN([C@@H](C)CO)C(=O)CCCn2nncc2CO[C@H]1CN(C)C(=O)Cc1ccccc1,·,-3,1.3,0,·,24%
CN(C(=O)c1ccccc1Cl)c1ccccc1C(=O)NCCc1ccccc1,3%,3,0.6,0,-2,6%
COCc1c(C(=O)OCC(=O)c2c(N)n(CC(C)C)c(=O)n(C)c2=O)oc2ccccc12,?,-3,-0.9,14,-4,?
Cc1nc(C)c(-c2csc(Nc3ccc(C(=O)O)c(O)c3)n2)s1,-19%,-28,-2.2,·,-1,?
Cn1c(=O)c2c(nc(N3CCCCCC3)n2CC(O)COc2ccc(Cl)cc2)n(C)c1=O (stereo not given),8%,1,-4.0,1,-5,10%
Cc1cccc(C)c1NC(=O)c1c(O)c2ccccc2[nH]c1=O,-8%,-1,2.1,9,2,-15%
CCCNC(=O)NC(=O)COc1c(F)c(F)cc(F)c1F,-7%,5,-0.9,-9,7,-10%
COc1c(/C=N/Nc2ccc([N+](=O)[O-])cc2[N+](=O)[O-])c(C)nn1-c1ccccc1,-1%,-5,4.1,8,-18,6%
COc1ccc(C)cc1S(=O)(=O)NNc1nc(C)cc(C)n1,10%,-2,-5.2,-10,-23,-31%[inhibitor]
Cc1nn(-c2ccc(N3CCCCC3)nn2)c(C)c1CCC(=O)Nc1ccccc1F,-10%,0,-3.2,1,9,12%
CC(=O)N1CC2(CC(c3ccccc3C(F)(F)F)=NO2)CN1c1ccc(Cl)cc1 (stereo not given),·,-7,-0.3,-8,-5,-63%[inhibitor]
CC(=O)Cn1cnc2c(cnn2-c2ccc(C)c(C)c2)c1=O,-8%,3,-1.6,0,-2,12%
CCOC(=O)C1CCCN(C(=O)c2ccc3nc(-c4ccc(OC)c(OC)c4)c(-c4ccc(OC)c(OC)c4)nc3c2)C1 (stereo not given),-14%,9,0.0,10,0,?
COc1cccc(-c2nc(-c3ccccn3)no2)c1OC,-9%,-3,-3.0,1,-5,-2%

More records.
mol,gsp antag,Six1-Eya2 blk,D2 ag,CtBP-E1A inh,D2 PAM,gsp agonist
Oc1csc(Cc2nc(-c3ccc(Br)cc3)cs2)n1,0%,-2,-6.9,4,0,-6%[15.4 µM]
Cc1cc2oc(C(=O)NCc3ccccc3)cc(=O)c2cc1C,-3%,0,0.8,0,-3,19%
CCOC(=O)C1(Cc2cccc(Cl)c2)CCCN(C(=O)c2cnn(CC)c2)C1 (stereo not given),1%,6,0.6,0,-7,-14%
CCCCC(=O)Nc1ccc(C)c(O)c1,8%,1,-14,0,-5,?
Cc1c(Cl)c([N+](=O)[O-])nn1Cc1ccc(C(=O)N/N=C\c2cc(Cl)ccc2O)o1,?,-72*,4.6,-70*,-2,0%
COc1ccc(N(CC(=O)Nc2cc(Cl)ccc2OC)S(=O)(=O)c2c(C)[nH]c(=O)[nH]c2=O)cc1,-9%,-90*,-3.0,-95*,-15,9%
Cc1ccc(S(=O)(=O)/N=C(\CCl)N2CCOCC2)cc1,-5%,12,-0.8,7,4,7%
Cc1cc(NC(=O)CSc2nnc(C)n2C)no1,10%,-3,-3.5,5,-5,-3%
N#CC1(c2ccccc2)CCCN1C(=O)c1ccc(Br)cc1 (stereo not given),-11%,3,-2.4,0,-8,-41%[inhibitor]
CC(C)c1cccc(C(C)C)c1NC(=O)CN1CCCC1,3%,4,2.5,5,-4,-4%
O=C1C/C(=C\c2c(F)cccc2Cl)N2CCC1CC2,4%,4,0.6,·,-11,-3%
Cn1c(NCc2ccccc2)nc2c1c(=O)n(Cc1ccccc1)c(=O)n2C,-5%,-27,-2.9,-21,-10,2%
O=C(OCc1cccc([N+](=O)[O-])c1)c1cccnc1,10%,-1,-3.1,4,-1,-8%[15.4 µM]
CC1CCCC(NC(=O)CSc2ccc(F)cc2)C1C (stereo not given),-4%,-1,5.0,·,-12,-1%
COc1ccc(N2CC(C(=O)OCC(=O)c3ccccc3)CC2=O)cc1 (stereo not given),-4%,0,-0.6,-1,8,-45%[inhibitor]
Cc1ccc(/C=N/NC(=O)c2cccc(S(=O)(=O)Nc3ccccc3Cl)c2)o1,-8%,-16,-3.0,-4,14,-28%
CN(c1ccccc1)S(=O)(=O)c1cccc(NC(=O)COC(=O)C2CCCCC2)c1,6%,16,5.2,0,4,-1%
COc1ccc(NS(=O)(=O)c2cccc(NC(=O)c3ccc(Cl)nc3)c2)cc1,?,-5,-2.8,-10,-5,5%[15.4 µM]
CCOC(=O)C1=C(C)Nc2ccccc2N/C1=N\S(=O)(=O)c1cccc(Cl)c1,-23%,2,14,2,3,-2%
Cc1nnc(SCC2=C(C(=O)O)N3C(=O)C(NC(=O)COc4ccc(F)cc4)C3SC2)s1 (stereo not given),5%,-3,2.3,4,-1,-18%

Later entries:
mol,gsp antag,Six1-Eya2 blk,D2 ag,CtBP-E1A inh,D2 PAM,gsp agonist
Cc1cc(Cl)ccc1OCC(=O)Nc1cccc(S(=O)(=O)N2CCCC2)c1,-15%,-7,1.1,·,-4,0%
Cc1ccc(NC(=O)NCc2ccc3c(c2)OCO3)cc1,12%,0,-1.8,1,-9,-8%
Cn1ncc2c1ncn1nc(CCc3ccccc3)nc21,2%,7,-1.5,11,9,11%
CCCc1cc(=O)[nH]c(SCCN2C(=O)c3ccccc3C2=O)n1,-29%,4,9.6,10,-7,-3%
CC(=O)NC(c1ccccc1)c1nc(-c2cccc(C#N)c2)cs1 (stereo not given),·,1,-3.3,3,-8,·
O=C(Nc1ccnn1C1CCN(C(=O)c2ccc(F)c(Cl)c2)CC1)C1CC1,-20%,0,-1.4,1,-22,-3%[15.4 µM]
Cc1cc(OCCCC(=O)NC2=NCCS2)ccc1Cl,-23%,-1,-3.4,8,?,-27%
CC(=O)Nc1ccc(S(=O)(=O)Nc2nc(-c3ccc(C(C)(C)C)cc3)cs2)cc1,10%,8,-1.0,-26,-2,-10%
Cc1ccc(N(C(=O)Nc2ccccc2)C2=NCCC2)cc1,7%,-5,-6.1,-2,-8,13%
O=C(Nc1ccc(C(=O)NCC2CCN(Cc3ccccc3F)CC2)cc1)C1=CSCCO1,6%,-5,0.4,·,-15,-17%
COc1ccc(NC(=S)NC2CCCCC2)c(OC)c1,-6%,-12,-15,0,-1,-4%[15.4 µM]
